# E coli growth = E. coli growth inhibition, primary screen, OD600 | Escherichia coli growth, 23 h; hits give low values | OD600 absorbance (test concentration not listed) | 330,000 compounds, 0.21% hits | AID 1053175, 2014;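 active = OD600 absorbance below the run mean of sample wells minus 3.6 SD, in any replicate, cut at about 0.56 in these data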;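 note: stock transfer was 300 nL into about 60 µL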
# UCH37 inh = inhibitors of human UCH37 deubiquitinase, primary screen, biochemical, Ub-AMC cleavage, fluorescence. 330,000 compounds, 0.33% hits. inhibition, % (test concentration not listed). Ubiquitin carboxyl-terminal hydrolase isozyme L5 (Homo sapiens), Q9Y5K5. purified proteasome/UCH37;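 active = mean of two replicates above 20%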;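 note: 0% = compound-free wells with enzyme and 100% = wells lacking proteasome; stock transfer was 100 nL into about 20 µL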
# Target sequence (Q9Y5K5 whole entry, looked up): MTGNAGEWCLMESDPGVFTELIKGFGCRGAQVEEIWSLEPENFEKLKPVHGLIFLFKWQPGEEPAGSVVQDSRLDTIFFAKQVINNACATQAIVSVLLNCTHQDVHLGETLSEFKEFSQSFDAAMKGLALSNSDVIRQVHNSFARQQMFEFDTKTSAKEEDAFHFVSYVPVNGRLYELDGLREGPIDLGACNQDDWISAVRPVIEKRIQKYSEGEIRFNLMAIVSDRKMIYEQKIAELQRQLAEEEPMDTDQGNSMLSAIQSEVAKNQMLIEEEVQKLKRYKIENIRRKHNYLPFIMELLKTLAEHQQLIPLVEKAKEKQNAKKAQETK
#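 Reagent: Ub-AMC substrate; assay system: Proteasome-associated human UCH37 deubiquitinase; controls: no-proteasome and no-compound wells; read-out: % inhibition of Ub-AMC cleavage fluorescence; timing: 30 min preincubation with enzyme, 25 min cleavage at room temperature; signal: AMC fluorescence from Ub-AMC cleavage, excitation 355 nm, emission 460 nm; buffer or medium: Tris-HCl pH 7.4 plus ovalbumin, ATP-MgCl2, DTT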
# FGF22 binding = binders of human FGF22 protein, primary screen, FGF22 synaptogenesis inhibitor project, biophysical, thermal shift, single point | Fibroblast growth factor 22 (Homo sapiens), Q9HCT0 | recombinant FGF22 thermal shift, SYPRO orange fluorescence; percent of sucrose octasulfate shift, DMSO zero | 340,000 compounds, 1.5% hits | calls only at 9.99 µM;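 active = melting point raised past a set limit in the mean and every replicate; three in four hits are not shown here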
# Target sequence (Q9HCT0 whole entry, looked up): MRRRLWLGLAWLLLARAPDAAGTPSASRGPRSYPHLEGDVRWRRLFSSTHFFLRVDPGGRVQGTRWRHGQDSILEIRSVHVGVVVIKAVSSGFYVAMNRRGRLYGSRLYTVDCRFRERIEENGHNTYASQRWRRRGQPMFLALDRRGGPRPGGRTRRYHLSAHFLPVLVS
# ALR inh = inhibitors of human ALR sulfhydryl oxidase, primary screen, biochemical, H2O2 detection, HRP-luminol luminescence, single point. inhibition, % (no concentration beside the values). 290,000 compounds, 3.8% hits. purified ALR, DTT oxidation. AID 485317, 2010;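 active = mean and each replicate at 75% or more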;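 note: stock transfer was 7.5 nL into about 7.5 µL; 0% = neutral wells and 100% = wells with inactivated enzyme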
# rRNA inh HTS = reduced GFP signal of wild-type E. coli, primary screen, bacterial rRNA inhibitor project, GFP/RFP fluorescence, OD600, single point | 350,000 compounds, 1.6% hits | GFP signal change (wild-type ribosome), % (test concentration not listed) | E. coli WT GFP vs humanized-ribosome RFP mutants, 24 h; hits give low values; DMSO median 0, no signal -100;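 active = significant combined selectivity score with lowered wild-type GFP, culture density cut under 30%, mutant RFP and density less affected; inactive = any of these conditions unmet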; note: one replicate is shown; some compounds called inactive have numbers as strong as hits
# HNF4A DNA FP = change in binding of human HNF4A to DNA, primary screen, biochemical, fluorescence polarization, FITC-DNA | Hepatocyte nuclear factor 4-alpha (Homo sapiens), P41235 | 1 h | activity change, % at 10 µM | 360,000 compounds, 0.3% hits; in the data active = activity change above about 30%, passing the limit was not always enough;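 note: controls were the assay level and a saturating level of protein; the project sought stronger binding though the title names inhibitors; some compounds called inactive have numbers as strong as hits; positive values seem to mean higher polarization but the record does not say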
# B2AR ag = beta2AR agonists driving receptor internalization, primary screen, cell-based, FAP fluorogen, flow cytometry | response, % (test concentration not listed) | 340,000 compounds, 0.43% hits | Beta-2 adrenergic receptor (Homo sapiens), P07550 | Am2.2-beta2AR cells; reference of the scale not given here;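 active = response above a set limit, near 3 SD of response in nonfluorescent compounds, cut at about 42% in these data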;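 note: stock transfer was 100 nL into about 11 µL; a reference agonist was the positive control; negative values mostly stem from fluorescent compounds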
# Target sequence (P07550 whole entry, looked up): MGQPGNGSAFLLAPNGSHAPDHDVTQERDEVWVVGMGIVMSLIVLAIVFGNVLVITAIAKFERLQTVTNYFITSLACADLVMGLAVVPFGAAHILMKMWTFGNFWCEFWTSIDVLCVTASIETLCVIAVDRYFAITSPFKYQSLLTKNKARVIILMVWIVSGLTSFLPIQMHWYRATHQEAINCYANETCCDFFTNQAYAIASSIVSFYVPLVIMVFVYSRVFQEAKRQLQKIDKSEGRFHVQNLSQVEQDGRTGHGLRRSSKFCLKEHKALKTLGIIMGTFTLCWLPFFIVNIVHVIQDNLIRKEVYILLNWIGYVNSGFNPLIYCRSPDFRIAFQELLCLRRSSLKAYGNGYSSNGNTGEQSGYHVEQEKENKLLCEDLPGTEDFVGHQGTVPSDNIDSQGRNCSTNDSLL
# rRNA inh HTS OD600 = further read-out of rRNA inh HTS, marked with its call; OD600 change, %; measured here: OD600 growth;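 optical density of the mix in the first replicate; 0 = DMSO median and -100 = no signal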
# rRNA inh HTS RFP = also measured in rRNA inh HTS; calls as there; RFP signal change, %; measured here: RFP humanized mutant strains;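 first replicate; 0 = DMSO median and -100 = no signal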
# Starred values were filed as active, the others as inactive; i = inactive; . = no result given; & = joins results of further samples. These rows are one share of the data. The share of hits here may be higher or lower than overall.
smiles	E coli growth	UCH37 inh	FGF22 binding	ALR inh	rRNA inh HTS	rRNA inh HTS OD600	rRNA inh HTS RFP	HNF4A DNA FP	B2AR ag
O=C(NCc1ccc2c(c1)OCO2)c1cccc(S(=O)(=O)N2CCCC2)c1	0.7	-0.6	i	-20	-18	-4	-5.6	0.3	16
CC(Oc1ccc(Br)cc1)C(=O)Nn1c(=S)[nH]c2ncccc2c1=O (configuration not stated)	0.67	4.9	.	73	.	.	.	.	.
COc1cccc(-c2cnc3c(NC=O)cc(-c4ccncc4)cn23)c1	.	.	i	.	2	-15	1.6	1.5	.
COCC(=O)Nc1ccc2c(c1)[C@@H]1C[C@H](CC(=O)NCc3cccc(F)c3)O[C@@H](CO)[C@@H]1O2	.	.	i	.	10&0	5&12	2.5&2.5	1.8	.
O=c1c2c3c(sc2n(CCN2CCCCC2)c(=O)n1Cc1ccco1)CCCCC3	0.7	0.1	.	-4	.	.	.	-1.4	-3
CN(CCC1CCOCC1)C(=O)CC1C(=O)NCCN1C/C=C/c1ccccc1 (configuration not stated)	0.62	-2.0	i	-4	5	-3	-0.6	0.1	-3
CCOc1ccc(S(=O)(=O)N2CC(=O)Nc3ccccc32)cc1	0.66	1.1	i	-1	-4	-4	1.7	-2.1	-19
C[C@@H]1CCCCO[C@@H](CN(C)C(=O)Cc2ccccc2)[C@@H](C)CN([C@H](C)CO)C(=O)c2cc(N(C)C)ccc2O1	.	.	i	.	1	-3	-0.4	-3.9	.
CCOC(=O)Cc1csc(NC(=O)CSc2ncnc3c2cnn3-c2ccc(OC)cc2)n1	0.71	1.9	.	.	.	.	.	1.1	-4
CCn1c(O)c(C=NCc2cccs2)c(=O)n(CC)c1=S	0.71	2.4	.	-5	.	.	.	2.4	-17
COC(=O)CNC(=O)C(Cc1c[nH]c2ccccc12)NC(=O)OC(C)(C)C (configuration not stated)	0.74	1.4	.	12	.	.	.	-1.7	2
COC(=O)C1=C(C)NC(C)=C(C(=O)OC)C1C(=O)OCC(=O)Nc1ccc(C(C)=O)cc1	0.64	-12	i	2	7	6	-2.8	-2.0	-5
Cn1cccc1/C=C1\SC(=Nc2cccc(O)c2)NC1=O	.	.	i	45	-20	-19	-5.7	13	7
COc1ccc(OC)c(CNC(=O)C2CCN(S(=O)(=O)N3CCC(C)CC3)CC2)c1	0.68	5.8	i	-2	-2	9	1.8	-0.5	-5
O=c1[nH]nc(-c2ccc(OCc3ccc(Cl)cc3Cl)cc2)o1	0.66	0.0	i	.	4	9	-0.8	1.7	11
O=C(NNS(=O)(=O)c1ccccc1)c1cccc(F)c1	0.69	-1.0	i	12	8	9	-1.2	-1.1	-4
O=C1CN(C(=O)COC(=O)Cc2ccccc2F)c2ccccc2N1	0.7	2.1	i	0	2	-4	-0.9	-2.6	5
CCN1C(=O)[C@H]2[C@H]3CN=C(SCC4CC4)N3[C@@](CC)(C(=O)OC)[C@H]2C1=O	0.68	1.8	i	.	14	9	4.8	0.2	6
Oc1cc(-c2ccccc2)c2ccccc2c1	0.57	-22	i	99*	-61	-82	-21	-0.9	3
O=C(N/N=C1/CCS(=O)(=O)c2ccc(F)cc21)c1ccccn1	.	.	i	.	4	15	-0.7	0.0	1
COc1ccc(N=C2SCC(c3ccc([N+](=O)[O-])cc3)=NN2CCO)cc1	.	.	i	-9	-11	-6	-0.8	-14	-11
CS(=O)(=O)N(Cc1ccccc1)c1ccc(C(=O)NN=C2CCCCCC2)cc1	0.71	0.4	.	0	.	.	.	-2.4	2
O=C(CSc1nc2ccccc2o1)NC(=O)NCc1ccccc1	0.67	-0.9	.	-23	.	.	.	-0.5	-1
COC(=O)c1ccc(OCC(O)CN2CCN(CC(O)COc3ccc(C(=O)OC)cc3)CC2)cc1 (configuration not stated)	0.67	-1.5	i	-3	-3	-1	2.2	-5.5	4
O=C(CCCN1C(=O)c2ccccc2C1=O)Oc1ccc(F)cc1	0.68	2.2	.	-9	.	.	.	-1.2	-8
Cc1ccc(C(=O)Nc2nnc([C@H]3C[C@H](O)[C@@H](CO)O3)s2)cc1	.	.	i	.	2	15	-2.5	-4.3	.
S=c1[nH]nc2sc3ccccc3n12	0.67	4.9	i	.	-5	-3	0.5	0.3	5
O=C(NC1CCCCCC1)c1ccc(Cl)c(S(=O)(=O)N2CCOCC2)c1	0.7	3.6	i	38	1	4	-1.1	1.0	-4
CC1(C(=O)Nc2ccc3c(c2)OCCO3)CN(S(C)(=O)=O)CC(=O)N1CCc1ccc(O)cc1 (configuration not stated)	.	.	i	.	7	13	1.5	1.2	.
COc1cc(NC(=O)C23CC4CC(C2)CC(n2nnc(C)n2)(C4)C3)c(OC)cc1Cl	0.72	1.1	.	-22	.	.	.	0.8	0
COc1ccccc1C(=O)Nc1ccc2c(c1)nc1n2CCSC1	0.71	-8.8	.	99*	.	.	.	-1.7	18
CCC(C)c1ccc(-n2c(=O)c3ccccc3n3c(=S)[nH]nc23)cc1 (configuration not stated)	0.72	-4.7	i	0	4	4	-1.5	-3.1	-12
O=[N+]([O-])c1ccc(OCC(O)CN2CCN(c3ccccc3F)CC2)cc1 (configuration not stated)	0.67	4.9	i	-12	3	2	-2.7	-0.5	-7
COc1ccc(/C=N/NC(=O)COc2cccc3ccccc23)c(C(=O)O)c1OC	.	.	.	-22	.	.	.	-1.8	6
FC(F)(F)c1ccc(C2[C@H]3CN(CC4CCCCC4)[C@H](c4ccccc4)C34CC2(c2cccnc2)C4)cc1 (some centres not stated)	.	-0.4	i	-16	-8	-31	22	2.3	0
CN1C[N+]([O-])=C(c2ccccc2)C1(C)C	0.7	-0.8	.	1	.	.	.	3.1	2
COCCN(C(=O)Nc1ccccc1)c1ccccc1	0.77	1.9	.	2	.	.	.	-0.1	-3
O=[N+]([O-])c1cc(S(=O)(=O)N2CCCC2)ccc1N/N=C/c1cccs1	.	.	.	-6	.	.	.	-1.6	-4
Cc1ccc(/C=C2\SC(=O)N(CCNC(=O)C3CSC4(C)CCC(=O)N34)C2=O)cc1 (configuration not stated)	0.72	7.9	i	0	-14	-20	-0.1	1.5	-5
O=C(CN1CCN(S(=O)(=O)c2cccc(Cl)c2)CC1)NCC1(N2CCOCC2)CCCCC1	0.66	1.9	i	.	.	.	.	2.2	11
COc1cc(/C=C/C(=O)O)cc(S(=O)(=O)N(CC(C)C)CC(C)C)c1OC	0.65	3.4	i	3	-4	-8	-1.7	4.2	3
Cc1oc(C(=O)O)cc1CSCc1cc(C(=O)O)c(C)o1	0.66	-1.2	.	99*	.	.	.	-2.0	-5
O=c1c2[nH]cnc2n(-c2ccc(F)cc2)c(=O)n1Cc1ccccc1	0.63	-4.2	i	2	1	4	-6.4	0.7	0
Cc1csc(-c2cnn(-c3ccccc3)c2NC(=O)c2cccc(F)c2)n1	0.67	3.2	.	6	.	.	.	2.3	1
CC(=O)Nc1ccc(N(C(=O)CNC(=O)c2cccs2)C(C(=O)NCC2CCCO2)c2ccccc2)cc1 (configuration not stated)	0.65	0.0	.	-2	6	8	0.3	0.6	-1
Cc1ccc(Nc2c(-c3ccc(N4CCOCC4)cc3)nc3cnccn23)cc1	0.68	-72	i	99*	-2	-10	0.3	1.9	3
N#CCN1CCCC(C(N)=O)C1 (configuration not stated)	0.7	4.5	i	-4	9	-4	-1.0	1.4	-1
Cc1[nH]c(=S)sc1Cc1ccc(F)cc1	0.66	4.8	.	.	.	.	.	-3.0	-2
CCCCN(CCCC)CCn1cnc2c([nH]c3ccc(OC)cc32)c1=O	0.71	-25	i	35	-5	2	2.0	-2.3	2
COc1ccc(C(=O)NC(=S)NNC(=O)CNC(=O)C2CCCCC2)cc1	0.68	1.8	i	99*	-4	0	0.7	-2.3	-3
COC(CN(C)C(=O)C1CCCN(S(=O)(=O)c2ccc3c(c2)oc(=O)n3C)C1)OC (configuration not stated)	0.65	-0.2	i	1	9	12	-0.6	-2.6	-7
CC(C)N1CCc2c(sc(NC(=O)c3ccc(S(=O)(=O)N4CCOCC4)cc3)c2C(N)=O)C1	0.7	11	i	7	-13	4	-1.5	0.4	8
Cc1ccc(C(=O)O/N=C/c2c(C)nn(C)c2Cl)cc1	.	.	i	.	-2	-5	0.0	4.1	-2
O=C(O)Cc1ccc(NC(=O)Cc2ccc3ccccc3c2)cc1	0.72	1.2	i	-3	0	-1	-1.8	0.0	0
Cc1c(C(=O)N2CCN(c3ccccc3F)CC2)sc2nc(-c3ccccc3)cn12	0.69	6.4	.	-2	.	.	.	14	0
CCNC(=S)NNC(=O)CCn1cc(C)cn1	.	.	.	21	.	.	.	-1.9	2
COc1c(C)cc(Br)cc1C(=O)Nc1ccccc1C	0.66	2.0	i	-4	12	2	-1.2	-3.8	-26
Cn1c(N)c(C(=O)COC(=O)CCC(=O)c2cccs2)c(=O)n(C)c1=O	0.75	2.9	.	-3	.	.	.	-1.7	-8
OCCN(CCO)CC(O)COc1ccc(C23CC4CC(CC(C4)C2)C3)cc1 (configuration not stated)	0.64	5.7	.	-28	.	.	.	3.2	25
CCCCCCc1ccc(OCC(=O)O)cc1OCC(=O)O	0.72	1.7	.	39	.	.	.	-1.5	-6

# Copied from the list.
# Reading of `Cc1[nH]c(=S)sc1Cc1ccc(F)cc1` in HNF4A DNA FP: -3.0
# Reading of `Cc1ccc(/C=C2\SC(=O)N(CCNC(=O)C3CSC4(C)CCC(=O)N34)C2=O)cc1` (configuration not stated) in B2AR ag: -5
# Reading of `Cc1c(C(=O)N2CCN(c3ccccc3F)CC2)sc2nc(-c3ccccc3)cn12` in ALR inh: -2

# (list continues)
smiles	E coli growth	UCH37 inh	FGF22 binding	ALR inh	rRNA inh HTS	rRNA inh HTS OD600	rRNA inh HTS RFP	HNF4A DNA FP	B2AR ag
O=C(CCN1C(=O)COc2ccccc21)NCCN1CCc2ccccc2C1	0.69	4.6	i	0	2	-3	-6.3	-1.3	-14
COc1ccc(NC(=O)c2cnn3c(C(F)(F)F)cc(-c4ccco4)nc23)cc1OC	0.71	6.0	.	-4	.	.	.	-1.6	39
Cc1nonc1OCCn1nnnc1N	0.69	6.6	i	-26	-3	-4	2.7	2.3	0
COc1cc(-c2nnc(NC(=O)CS(=O)(=O)c3ccc(C)cc3)o2)cc(OC)c1OC	0.69	6.3	i	.	4	7	-1.7	0.5	2
COc1ccc(N=C(NN)c2ccc3ccccc3n2)cc1	0.75	0.5	i	-64	-13	1	-6.8	1.3	-7
CCOc1ccc(N2C(=O)C3C(c4ccc(OC)cc4OC)NC(CCSC)(C(=O)OC)C3C2=O)cc1 (configuration not stated)	.	.	i	-2	5	11	0.4	1.6	-1

# Arranged by molecular weight (rising): part of the list above
smiles	E coli growth	UCH37 inh	FGF22 binding	ALR inh	rRNA inh HTS	rRNA inh HTS OD600	rRNA inh HTS RFP	HNF4A DNA FP	B2AR ag
COc1ccc(N=C(NN)c2ccc3ccccc3n2)cc1	0.75	0.5	i	-64	-13	1	-6.8	1.3	-7
O=C(CCN1C(=O)COc2ccccc21)NCCN1CCc2ccccc2C1	0.69	4.6	i	0	2	-3	-6.3	-1.3	-14
COc1cc(-c2nnc(NC(=O)CS(=O)(=O)c3ccc(C)cc3)o2)cc(OC)c1OC	0.69	6.3	i	.	4	7	-1.7	0.5	2

# Screening data as filed in PubChem.
